Compound activity (PubChem BioAssay)
NS1 inh – influenza NS1 inhibition; Potency, µM (doses to about 46.1 µM), without a hit: at the highest dose activity, positive = more growth; 270,000 compounds, 0.4% hits; S. cerevisiae slowed by influenza A NS1, growth recovery by OD600; active means well fitted rising curve with a large enough effect; inconclusive means small, poorly fitted or top-dose-only effect; inactive means no such curve, though single readings can be large or run the other way; also: nearly all actives have a fitted effect of over 50% in size
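Compounds were scored for reversing the slow growth caused by influenza A NS1 in S. cerevisiae, measured by optical density at 600 nm. Assay medium contained 2% galactose at pH 6.0; NS1-free yeast of the same strain were the positive control.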
Cruzain Triton – cruzain (T. cruzi) inhibition with detergent; purified cruzain, Z-FR-AMC fluorescence, 0.01% Triton; Potency, µM, without a hit: max response, negative = inhibition, usual class: inhibitors; 200,000 compounds, 0.43% hits; AID 1478;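 also: plate controls were neutral wells for no effect and buffer without enzyme for full effect; nearly all actives have a fitted effect of over 40% in size; top concentration of the series not given in the record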
Target sequence (P25779 123-467 limits assumed): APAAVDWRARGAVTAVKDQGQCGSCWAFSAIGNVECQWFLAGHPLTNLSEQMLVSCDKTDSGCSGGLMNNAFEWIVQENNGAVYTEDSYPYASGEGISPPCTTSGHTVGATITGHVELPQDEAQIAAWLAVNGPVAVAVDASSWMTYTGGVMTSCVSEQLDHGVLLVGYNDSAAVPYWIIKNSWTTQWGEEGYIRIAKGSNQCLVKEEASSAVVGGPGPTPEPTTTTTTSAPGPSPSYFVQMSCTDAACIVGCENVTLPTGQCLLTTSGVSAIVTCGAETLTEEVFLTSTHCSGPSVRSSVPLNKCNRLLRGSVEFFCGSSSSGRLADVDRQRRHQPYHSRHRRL
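Detergent-containing run (0.01% Triton X-100) in acetate buffer pH 5.5 with 5 mM DTT: enzyme at 1.5 nM final, 15 min compound preincubation at room temperature, then 2 uM Z-FR-AMC substrate. Activity taken as 60 s fluorescence increase at 360/450 nm.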
Marburg entry inh – Marburg virus entry inhibition; Marburg virus pseudotyped entry inhibition, cell reporter; control for the full effect not named in the record; about a third of the inactives were read at about 46 µM; Potency, µM (highest dose often 37.8 µM), without a hit: top-dose activity change, negative = inhibition, most hits filed as inhibitors; 300,000 compounds, 1.8% hits; active = well fitted inhibition curve with a large enough effect; inconclusive = small, poorly fitted or top-dose-only effect, or effect the other way; inactive = flat fitted curve, though single readings scatter; tested in HEK293 cells; about a fifth of its hits are not listed in these tables; also: % is scaled to controls: 0 for no effect and ±100 for the full control effect; luciferase read-out
Lassa entry inh – Lassa virus entry inhibition; 300,000 compounds, 1.2% hits; Lassa virus pseudotype entry inhibition, cell reporter; control for the full effect not named in the record; Potency, µM (series often up to 37.9 µM), for the others: at the top dose activity change, negative = inhibition, usual class: inhibitors; AID 540256; active means well fitted inhibition curve with a large enough effect; inconclusive means small, poorly fitted or top-dose-only effect, or effect the other way; inactive means flat fitted curve, though single readings scatter; tested in HEK293 cells; also: % is scaled to controls: 0 for no effect and ±100 for the full control effect; nearly all actives have a fitted effect of over 50% in size; luciferase read-out
RE007 growth inh – less growth of the S. pombe RE007 Vpr strain. S. pombe RE007 Vpr strain, BacTiter-Glo ATP luminescence, 24 h; control for the full effect not named in the record. Potency, µM (top dose mostly 92.2 µM), without a hit: top-dose activity change, negative = less growth. 360,000 compounds, 0.21% hits. AID 651644; active = well fitted falling curve with a large enough effect; inconclusive = small, poorly fitted or top-dose-only effect; inactive = no such curve, though single readings can be large or run the other way;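 also: % is scaled to controls: 0 for no effect and ±100 for the full control effect; nearly all actives have a fitted effect of over 50% in size; the assay follows cell death caused by Vpr and the record does not say whether a fall means rescue or toxicity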
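Fission yeast strain RE007, carrying one chromosomally integrated HIV-1 vpr copy, was seeded at OD 0.01 in PMG+AL medium with 23 nL pinned compound. After 24 h at 30 °C and 99% humidity, viability was read by BacTiter-Glo luminescence.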
Cruzain inh noDet – cruzain (T. cruzi) inhibition without detergent; P25779; 200,000 compounds, 2.3% hits; purified cruzain, Z-FR-AMC fluorescence, no detergent; Potency, µM, for the others: max response, negative = inhibition, actives largely listed as inhibitors;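 also: plate controls were enzyme without inhibitor for no effect and buffer without enzyme for full effect; nearly all actives have a fitted effect of over 40% in size; top concentration of the series not given in the record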
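Purified cruzain at 1.5 nM, pre-incubated 15 min with compound at room temperature in 100 mM sodium acetate pH 5.5, 5 mM DTT, 0.00005% Triton X-100. Reaction started with 2 uM Z-FR-AMC; AMC fluorescence increase over 60 s gives rate.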
StopGo reporter – FMDV 2A StopGo reporter, luciferase signal; human cells with a luciferase reporter of 2A StopGo recoding; control for the full effect not named in the record; Potency, µM (top dose mostly 57.9 µM), for inactives: at the top dose signal change, negative = less light; 410,000 compounds, 1.2% hits; AID 1159524; active = well fitted falling curve with a large enough effect; inconclusive = small, poorly fitted or top-dose-only effect; inactive = no such curve, though single readings can be large or run the other way; tested in HEK293T cells; also: % is scaled to controls: 0 for no effect and ±100 for the full control effect; nearly all actives have a fitted effect of over 45% in size; luciferase light after 4 h
SARS PLpro yeast – blocks SARS-CoV papain-like protease in a yeast assay; 330,000 compounds, 0.19% hits; Potency, µM (highest dose often 32.9 µM), without a hit: top-dose activity, positive = growth rescue; AID 485353; S. cerevisiae expressing SARS-CoV PLpro, growth rescue; control for the full effect not named in the record; active means well fitted rising curve with a large enough effect; inconclusive means small, poorly fitted or top-dose-only effect; inactive means no such curve, though single readings can be large or run the other way; also: 0% is about no effect; nearly all actives have a fitted effect of over 55% in size; growth read by luminescence after 48 h
* hit, by the source's call; ? = inconclusive; · = not tested or not shown; & = joins results of further samples; [ ] = remark or other dose. Unless noted, calls follow the shape of the dose curve; as a rule, active = well fitted curve in the direction sought with a large enough effect; inconclusive = small, poorly fitted or top-dose-only effect, or another doubt; inactive = no such curve, though single readings can be large; an effect the other way counts as inactive or inconclusive. Potency is read from the fitted curve at half-maximal effect.

smiles,Marburg entry inh,Lassa entry inh,SARS PLpro yeast,StopGo reporter,NS1 inh,Cruzain Triton,Cruzain inh noDet,RE007 growth inh
O=C(NCC(c1cccs1)S(=O)(=O)c1cccs1)c1c(F)cccc1F (stereo not given),·,11%[46.1 µM],·,-1%,·,0.2%,-7%,·
OC1CC2CCC(C1)N2CCCN1c2ccccc2Sc2ccc(Cl)cc21 (stereo not given),?,-14%[46.1 µM],·,-22%,·,·,·,0%
COCCNc1nc(SCC(=O)N2CCN(c3ccccc3)CC2)nc2ccccc12,?,27%[14.3 µM],5%,-16%,-7%,-20%,2%,-5%
CC(C)(C)CC(=O)Nc1ccc(C(N)=O)cc1,4%,-7%,1%,38%[activator],18%,0.3%,-6%,-22%[3.69 µM]
COc1ccccc1/C=N/N1C(=O)c2cccc3cccc(c23)C1=O,-3%[46.1 µM],8%,-1%,8%,·,·,·,-10%
Cc1noc(C)c1COC(=O)c1cccc(S(=O)(=O)N2CCCCCC2)c1,8.9µM*,?,-7%,?,-13%,-11%,18%,-2%
CCOC(=O)CNC(=O)CN1C(=O)CC(c2ccccc2)S(=O)(=O)c2ccccc21 (stereo not given),2%[46.1 µM],5%,1%,11%,·,·,·,-19%
COc1ccc(C2=NS(=O)(=O)N(C)C(C(=O)N3CCc4ccccc4C3)=C2)cc1OC,·,·,6%,28µM*,14%,·,·,-3%
CCOc1ccc2[nH]c(=O)c(CN(CCCN3CCOCC3)Cc3nnnn3Cc3ccc(OC)cc3)cc2c1,?,?,1%,-27%,-1%,·,·,-24%
Cc1onc(-c2ccccc2)c1C(=O)N1CCN(S(=O)(=O)c2ccc3c(c2)OCCO3)CC1,-2%&-2%,?,?,?,-2%,-4.6%,?,-5%
CCCSc1nc(C)c(CC(=O)O)c(=O)[nH]1,3%,-17%,3%,8%,-4%,6.5%,6%,2%
CC(C)Cn1ccc(=O)n(CC(C)C)c1=O,?,4%,3%,-6%,?,0.0%,-8%,14%
CC(C)c1ccc(N2C(=NC(=O)C3CCCO3)SC3CS(=O)(=O)CC32)cc1 (stereo not given),15%[46.1 µM],-2%[46.1 µM],5%,4%,0%,·,·,0%
O=C(CSc1nnc(CNC(=O)c2ccco2)o1)Nc1ccc(Br)cc1,·,·,-1%,-12%,11%,·,·,4%
CCNc1nc(Oc2ccc(=O)[nH]n2)nc(SC)n1,19%,7%,4%,13%,1%,-0.3%,-5%,11%
CCOC(=O)C1(Cc2ccccc2)CCN(Cc2cnn(CC)c2)CC1,-5%[46.1 µM],-10%[46.1 µM],1%,-4%,-4%,·,·,7%
CC(C(=O)Nc1ccc(Cl)cc1Cl)N1C(=O)NC2(CCCC2)C1=O (stereo not given),?,5%[46.1 µM],-3%,-13%,5%,·,·,-10%
CCC(C(=O)Nc1c[nH]c(=O)[nH]c1=O)c1ccccc1 (stereo not given),-3%,1%,3%,-24%,4%,-2.4%,-6%,2%
Cc1cccc(N(CC(O)CN2CCOCC2)S(=O)(=O)c2ccccc2)c1 (stereo not given),5%[46.1 µM],-1%[46.1 µM],2%,-3%,-9%,·,·,13%
COC(=O)c1cc(S(=O)(=O)N2CCC(c3cc(OC)ccc3OC)C2)c[nH]1 (stereo not given),·,·,13%,-30%,7%,·,·,7%
COc1ccccc1C1CC(c2ccc(Cl)cc2)Nc2ncnn21 (stereo not given),8%,-13%,1%,?,-15%,-5.7%,-8%,-4%
CC(C)Nc1nc(NC(C)C)nc(SCC(N)=O)n1,?,-20%,0%,-5%,3%,·,·,1%
CCN(CC)C(=S)Nc1ccc(C(=O)OC)cc1,7%[46.1 µM],·,0%,42%[activator],6%,·,·,-5%
COc1ccc(CNC(=O)CCCC2=NS(=O)(=O)c3ccccc3N2)cc1,?,9%[46.1 µM],3%,6%,1%,·,·,9%
O=C1/C(=C/c2cccc(Cl)c2)SC(=S)N1CCC(=O)N1CCCCC1CCO (stereo not given),·,·,-4%,-17%,-7%,·,·,-6%
CC(=N)c1c(O)c2ccccc2oc1=O,·,·,-1%,42%[activator],-65%,·,·,-15%
Cc1nnc(SCC(=O)Nc2ccc(N(C)C)cc2)[nH]c1=O,8%[46.1 µM],8%[46.1 µM],·,-1%,·,-1.2%,18%,·
CCCS(=O)(=O)N1CCCC(C(=O)NCCc2ccc(Cl)cc2)C1 (stereo not given),0%,-3%,-1%,1%,-3%,5.1%,3%,9%
O=C1c2ccccc2C(=O)N1CCCc1nc(-c2ccccn2)no1,9%[46.1 µM],-13%,1%,13%,?,2.5%,-15%,21%
OC1(c2cccnc2)CCN(Cc2nnnn2C2CCCCC2)CC1,11%,2%,9%,13%,-7%,0.5%,-5%,11%

The last 3 records of the part before come first, to join the parts.
smiles,Marburg entry inh,Lassa entry inh,SARS PLpro yeast,StopGo reporter,NS1 inh,Cruzain Triton,Cruzain inh noDet,RE007 growth inh
CCCS(=O)(=O)N1CCCC(C(=O)NCCc2ccc(Cl)cc2)C1 (stereo not given),0%,-3%,-1%,1%,-3%,5.1%,3%,9%
O=C1c2ccccc2C(=O)N1CCCc1nc(-c2ccccn2)no1,9%[46.1 µM],-13%,1%,13%,?,2.5%,-15%,21%
OC1(c2cccnc2)CCN(Cc2nnnn2C2CCCCC2)CC1,11%,2%,9%,13%,-7%,0.5%,-5%,11%
O=C(NCc1ccccn1)c1ccc(COc2ccc(Cl)cc2)o1,-9%,-1%,-4%,·,-12%,0.1%,1%,18%
Cc1ccc(-n2nc(C)c3c(C)onc3c2=O)cc1,·,·,-3%,8%,-2%,·,·,-11%
CCc1ccccc1NC(=O)Nc1cc(C(=O)NCc2cccc(F)c2)ccc1N1CCCC1,·,2%[46.1 µM],·,-5%,·,-3.1%,3%,·
c1ccc2oc(-c3[nH]ncc3CN(Cc3ccncc3)CC3CCCO3)cc2c1 (stereo not given),·,·,1%,7%,0%,·,·,-18%
CC(NC(=O)c1ccccc1NC(=O)c1ccco1)c1ccccc1 (stereo not given),7%,8%,9%,·,2%,2.6%,-13%,0%
COC(=O)c1cc(=O)n(Cc2ccc(OC)cc2)c(=NCc2ccc(OC)cc2)s1,?,8%[46.1 µM],0%,?,·,·,·,-7%
Cc1[nH]c2nc3ccccc3n2c(=O)c1CCC(C)C,21%,-3%,-1%,12%,-18%,·,·,3%
Cc1cc(N2CCC(C)CC2)nc(NCc2ccccc2)n1,?,18µM*,-15%,0%,-43%,-4.0%,-3%,3%
CC1CCCN(C(=O)COc2ccc(NC(=O)c3cccs3)cc2)C1 (stereo not given),-3%[46.1 µM],-1%,-12%,27%,·,·,·,45%
O=C(NCC1COc2ccccc2O1)c1cccs1 (stereo not given),6%[46.1 µM],22%[46.1 µM],1%,22%,-8%,·,·,6%
CCn1c(SCC(=O)Nc2nccs2)nnc1-c1ccc(C)cc1,3%,?,6%,-4%,4%,-0.1%,-11%,11%
CC1CCCN(C(=O)c2cccc(S(=O)(=O)N3CCCc4ccccc43)c2)C1 (stereo not given),-19%,-16%[46.1 µM],-5%,-15%,·,·,·,-7%
COc1ccc2cc(C(=O)O)ccc2c1,13%,7%,?,11%,-163%,0.5%,3%,-15%
O=[N+]([O-])/C=C1\NCCN1Cc1ccc(Cl)nc1,0%[46.1 µM],6%,-1%&-9%,15%&-5%,2%,-12%,-15%,4%&-8%
C/C(=N\NC(=O)c1ccccc1O)C1C(=O)c2ccccc2C1=O,-9%,-4%,14%,-8%,-196%,-17%,-3%,-15%[3.69 µM]
CC(=O)c1cnc(SCc2ccc(Cl)cc2)nc1C,?,?,-3%,18%,-6%,·,·,-14%
CC(C)OC(=O)CSc1nnc(-c2ccccn2)n1C,-25%,-3%,3%,38%[activator],-7%,-3.1%,-3%,-10%
CC(C)C(C)NC(=O)CN1C(=O)NC(C)(c2ccc3ccccc3c2)C1=O (stereo not given),2%[46.1 µM],-4%[46.1 µM],2%,-25%,-2%,·,·,-3%
CCc1ccc2c(c1)c(=O)c(C(=O)c1ccc(C)cc1)cn2CC(=O)Nc1ccccc1C,1%[46.1 µM],-19%[46.1 µM],·,-19%,·,-0.7%,2%,·
Cc1ccccc1-n1c(C)nc2sccc2c1=O,-12%[46.1 µM],21%,22%,16%,-1%,1.4%,-3%,1%
Cc1noc(Cn2c(=O)c3ccccc3n(CC(=O)Nc3ccccc3C(F)(F)F)c2=O)n1,·,-1%[46.1 µM],·,6%,·,-0.6%,1%,·
O=C(COC(=O)c1ccccc1[N+](=O)[O-])c1ccc(C2CCCCC2)cc1,·,-30%,2%,11µM*,?,-5.0%,?,12%
COc1ccccc1OCC(=O)Nc1ccc(CSc2ccccc2)cc1C,1%,-1%,13%,-10%,0%,-0.2%,-9%,15%
COc1ccc(CCN(C)C(=O)CSc2nnc(-c3ccco3)o2)cc1OC,-2%,2%,4%,-12%,7%,·,·,15%
CCN(Cc1ccccc1)S(=O)(=O)c1ccccc1Br,1%,·,-18%,-24%,·,·,·,6%
CN(C)C(=O)c1ccc(-n2cccn2)nc1,16%[46.1 µM],5%,-1%,18%,·,·,·,-21%
CCC(C)CN1CCC(CO)(Cc2ccccc2Cl)CC1 (stereo not given),?,-3%[46.1 µM],1%,-14%,-5%,·,·,-15%

No enrichment for hits. About 4.6% of those tested had a hit in this group.
